Assay outcomes: PubChem, National Center for Advancing Translational Sciences (NCATS)
Cruzain noTriton: blocks cruzain activity in detergent-free assay; Potency, µM, inactives show max response, negative = inhibition, most hits filed as inhibitors; 2.3% of 200,000 active; purified cruzain, Z-FR-AMC fluorescence, no detergent;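 further: plate controls were enzyme without inhibitor for no effect and buffer without enzyme for full effect; nearly all actives have a fitted effect of over 40% in size; top concentration of the series not given in the record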
Target sequence (P25779 123-467 limits assumed): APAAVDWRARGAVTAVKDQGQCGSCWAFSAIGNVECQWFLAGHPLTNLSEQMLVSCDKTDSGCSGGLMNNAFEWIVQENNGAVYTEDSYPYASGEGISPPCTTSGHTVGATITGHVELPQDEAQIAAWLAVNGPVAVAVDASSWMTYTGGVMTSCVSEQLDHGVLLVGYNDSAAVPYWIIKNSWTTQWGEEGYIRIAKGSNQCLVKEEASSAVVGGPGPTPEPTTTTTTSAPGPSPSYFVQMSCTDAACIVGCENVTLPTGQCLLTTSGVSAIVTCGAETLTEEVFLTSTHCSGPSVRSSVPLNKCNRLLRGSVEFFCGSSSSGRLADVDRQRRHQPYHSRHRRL
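Purified cruzain at 1.5 nM, pre-incubated 15 min with compound at room temperature in 100 mM sodium acetate pH 5.5, 5 mM DTT, 0.00005% Triton X-100. Reaction started with 2 uM Z-FR-AMC; AMC fluorescence increase over 60 s gives rate.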
NS1 inh: blocks influenza NS1 protein function; S. cerevisiae slowed by influenza A NS1, growth recovery by OD600; Potency, µM (highest dose often 46.1 µM), for inactives: at the top dose activity, positive = more growth; 0.4% of 270,000 active; active means well fitted rising curve with a large enough effect; inconclusive means small, poorly fitted or top-dose-only effect; inactive means no such curve, though single readings can be large or run the other way; further: nearly all actives have a fitted effect of over 50% in size
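Recovery from NS1-induced slow growth read by OD600 in budding yeast switched to galactose assay medium (pH 6.0, -URA) at 1:100 dilution. Compound 23 nl per well; the matching strain lacking NS1 serves as control.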
2A StopGo: FMDV 2A StopGo reporter, luciferase signal; human cells with a luciferase reporter of 2A StopGo recoding; control for the full effect not named in the record; Potency, µM (highest dose often 57.9 µM), for the others: top-dose signal change, negative = less light; 1.2% of 410,000 active; AID 1159524; active = well fitted falling curve with a large enough effect; inconclusive = small, poorly fitted or top-dose-only effect; inactive = no such curve, though single readings can be large or run the other way; tested in HEK293T cells; further: on the % scale 0 is the no-effect control and ±100 the full control effect; nearly all actives have a fitted effect of over 45% in size; luciferase light after 4 h
Cruzain Triton: cruzain (T. cruzi) inhibition with detergent | P25779 | purified cruzain, Z-FR-AMC fluorescence, 0.01% Triton | Potency, µM, inactives show max response, negative = inhibition, most hits filed as inhibitors | 0.43% of 200,000 active | AID 1478;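 further: plate controls were neutral wells for no effect and buffer without enzyme for full effect; nearly all actives have a fitted effect of over 40% in size; top concentration of the series not given in the record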
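Steps: dispense cruzain (1.5 nM final) in acetate buffer pH 5.5 with DTT and 0.01% Triton X-100; pin-transfer compounds; incubate 15 min RT; add Z-FR-AMC (2 uM final); read fluorescence every 30 s, using the 60 s intensity change.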
SARS PLP yeast: inhibitors of SARS-CoV papain-like protease in yeast; S. cerevisiae expressing SARS-CoV PLpro, growth rescue; control for the full effect not named in the record; Potency, µM (top dose mostly 32.9 µM), for the others: at the highest dose activity, positive = growth rescue; 0.19% of 330,000 active; AID 485353; active means well fitted rising curve with a large enough effect; inconclusive means small, poorly fitted or top-dose-only effect; inactive means no such curve, though single readings can be large or run the other way; further: 0% is about no effect; nearly all actives have a fitted effect of over 55% in size; growth read by luminescence after 48 h
Marburg entry inh: blocks Marburg virus binding to or entry into cells; Marburg virus pseudotyped entry inhibition, cell reporter; control for the full effect not named in the record; about a third of the inactives were read at about 46 µM; Potency, µM (highest dose often 37.8 µM), without a hit: at the top dose activity change, negative = inhibition, hits mostly inhibitors; 1.8% of 300,000 active; active = well fitted inhibition curve with a large enough effect; inconclusive = small, poorly fitted or top-dose-only effect, or effect the other way; inactive = flat fitted curve, though single readings scatter; tested in HEK293 cells; about a fifth of its hits are not listed in these tables; further: on the % scale 0 is the no-effect control and ±100 the full control effect; luciferase read-out
RE007 growth inh: less growth of the S. pombe RE007 Vpr strain; S. pombe RE007 Vpr strain, BacTiter-Glo ATP luminescence, 24 h; control for the full effect not named in the record; Potency, µM (doses to about 92.2 µM), for inactives: at the top dose activity change, negative = less growth; 0.21% of 360,000 active; active = well fitted falling curve with a large enough effect; inconclusive = small, poorly fitted or top-dose-only effect; inactive = no such curve, though single readings can be large or run the other way;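 further: on the % scale 0 is the no-effect control and ±100 the full control effect; nearly all actives have a fitted effect of over 50% in size; the assay follows cell death caused by Vpr and the record does not say whether a fall means rescue or toxicity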
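Fission yeast RE007 carrying one integrated HIV-1 vpr copy, seeded at OD 0.01 in PMG+AL medium with 23 nL pinned compound. Grown 24 h at 30 degrees; viability read by BacTiter-Glo luminescence after 5 min.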
LASV entry inh: blocks Lassa virus binding to or entry into cells | Potency, µM (top dose mostly 37.9 µM), for inactives: at the top dose activity change, negative = inhibition, usual class: inhibitors | Lassa virus pseudotype entry inhibition, cell reporter; control for the full effect not named in the record | 1.2% of 300,000 active; active means well fitted inhibition curve with a large enough effect; inconclusive means small, poorly fitted or top-dose-only effect, or effect the other way; inactive means flat fitted curve, though single readings scatter; tested in HEK293 cells; further: on the % scale 0 is the no-effect control and ±100 the full control effect; nearly all actives have a fitted effect of over 50% in size; luciferase read-out
* = called active by the depositor; ? = inconclusive; · = not tested or not shown; [ ] = remark or other dose. Unless noted, the call rests on the fitted dose curve; in most records, active means well fitted curve in the direction sought with a large enough effect; inconclusive means small, poorly fitted or top-dose-only effect, or another doubt; inactive means no such curve, though single readings can be large; an effect the other way counts as inactive or inconclusive. Potency means the concentration at half of the fitted maximal effect.

| entry | compound | Cruzain noTriton | NS1 inh | 2A StopGo | Cruzain Triton |
| --- | --- | --- | --- | --- | --- |
| 1 | CCc1nc(NCCCn2ccnc2)c2oc3ccccc3c2n1 | 5% | 4% | -13% | -0.5% |
| 2 | COc1ccccc1N=Cc1c(O)n(C)c(=O)n(C)c1=O | 2% | -6% | 26% | -1.1% |
| 3 | O=C(COC(=O)COc1ccccc1)NC1CCCc2ccccc21 (stereo not given) | -7% | -13% | 1% | -3.3% |
| 4 | O=c1cc(CN2CCN(S(=O)(=O)c3ccccc3[N+](=O)[O-])CC2)nc2sccn12 | · | · | 26% | · |
| 5 | CCOC(=O)/C(C#N)=C1\Nc2ccccc2N=C1N(CC(C)C)CC(C)C | -8% | 14% | · | -9.2% |
| 6 | CC(C)NC(=S)N1CCN(C/C=C/c2ccccc2)CC1 | · | -2% | -14% | · |
| 7 | O=C(NNc1ncnc2c1cnn2-c1ccc(F)cc1)c1ccco1 | · | -3% | 15% | · |
| 8 | COc1ccccc1NS(=O)(=O)c1cccc(C(=O)N2CCN(C/C=C/c3ccccc3)CC2)c1 | · | -4% | -18% | · |
| 9 | O=C(CN1C(=O)c2cccnc2Oc2ccc(Cl)cc21)NC1CCCC1 | · | 9% | -21% | · |
| 10 | CCOC(=O)CN1C(c2ccccc2O)Nc2ccc(Br)cc2C1c1ccccc1 (stereo not given) | -19% | -1% | ? | -4.0% |
| 11 | Cc1c(C)n(CC(O)CNc2ccccc2)c2ccccc12 (stereo not given) | · | -1% | -21% | · |
| 12 | CCCCn1c(N)c(N(CCOC)C(=O)CCCc2cccs2)c(=O)[nH]c1=O | · | · | -10% | · |
| 13 | CCN(Cc1ccncc1)C(=O)Cc1cccs1 | · | 11% | 6% | · |
| 14 | O=C(Nc1nncs1)C1CC(=O)N(C2CCCC2)C1 (stereo not given) | · | 1% | -27% | · |
| 15 | Cc1ccc(NC(=O)CSc2nnc(COc3ccc(Cl)cc3)o2)c(C)c1 | -10% | · | -21% | -0.9% |

| entry | SARS PLP yeast | Marburg entry inh | RE007 growth inh | LASV entry inh |
| --- | --- | --- | --- | --- |
| 1 | -5% | 6% | -3% | 7% |
| 2 | -1% | 28% | -14% | -6% |
| 3 | -10% | · | 1% | · |
| 4 | -3% | 8%[46.1 µM] | 6% | -2%[46.1 µM] |
| 5 | -24% | ? | 6% | -3% |
| 6 | 0% | 0%[46.1 µM] | -16% | -4% |
| 7 | -1% | · | 10% | · |
| 8 | -5% | ? | -10% | -29% |
| 9 | -1% | -22%[46.1 µM] | 35% | ? |
| 10 | -16% | -13% | 5% | ? |
| 11 | -4% | · | 18% | · |
| 12 | · | 15% | 6% | 9% |
| 13 | -1% | · | 5% | · |
| 14 | 0% | · | 8% | · |
| 15 | · | 10%[46.1 µM] | · | -1%[46.1 µM] |

(listing goes on)
| entry | compound | Cruzain noTriton | NS1 inh | 2A StopGo | Cruzain Triton |
| --- | --- | --- | --- | --- | --- |
| 16 | Cc1ccc(C(=O)N2CCC(C(=O)NCc3cccnc3)CC2)cc1 | -4% | -1% | -21% | -0.6% |
| 17 | COc1ccc(NS(=O)(=O)c2cccc(C(=O)Nc3cccc(C(=O)O)c3)c2)cc1 | · | 25% | -8% | · |
| 18 | O=C(NC1CC1)c1nc(Cn2ccc([N+](=O)[O-])n2)no1 | · | 9% | -14% | · |
| 19 | O=C(O)CC1S/C(=N\N=C2CCCCCCC2)N(c2ccccc2)C1=O (stereo not given) | · | 6% | -11% | · |
| 20 | CCCNC(=O)CS(=O)Cc1nc(-c2ccc(OC)cc2)oc1C (stereo not given) | -2% | 4% | -6% | 5.2% |
| 21 | N/C(CC(=O)Nc1cccc(C(F)(F)F)c1)=N/O | -4% | -3% | -6% | 0.8% |
| 22 | COc1ccc(Cl)cc1NC(=O)N1CCC(C)CC1 | · | -5% | -3% | · |
| 23 | Cn1cnc([N+](=O)[O-])c1Sc1ccc(Br)cc1 | -12% | -11% | ? | -1.5% |
| 24 | COc1ccc(C)cc1S(=O)(=O)N(CC(=O)NCc1ccc(Cl)cc1)Cc1ccccc1 | 5% | 10% | ? | -2.0% |
| 25 | CCOc1ccc(CCNC(=O)c2sc3nc4n(c(=O)c3c2C)CCCC4)cc1OCC | 14% | · | -23% | 0.4% |
| 26 | CCOCCOc1cccc(C(=O)NC(C)c2ccc3ccccc3c2)c1 (stereo not given) | · | 6% | -23% | · |
| 27 | Cn1c(=O)n(Cc2ccccc2F)c2ccccc21 | 4% | -10% | -20% | 0.2% |
| 28 | O=C(COc1ccc2c3c(c(=O)oc2c1)CCC3)N[C@@H](CSCc1ccccc1)C(=O)O | · | 28% | -14% | · |
| 29 | Clc1ccc(OCCCNCc2ccccc2)c2ccccc12 | · | 7% | -15% | · |
| 30 | CCOC(=O)c1cnc2ccc(Cl)cc2c1Nc1ccc(S(=O)(=O)Nc2ncccn2)cc1 | -5% | 11% | 22% | -2.3% |

| entry | SARS PLP yeast | Marburg entry inh | RE007 growth inh | LASV entry inh |
| --- | --- | --- | --- | --- |
| 16 | -2% | 6% | 11% | -7% |
| 17 | 1% | 2%[46.1 µM] | 7% | -2%[46.1 µM] |
| 18 | 0% | 3%[46.1 µM] | 11% | 20% |
| 19 | 0% | -12%[46.1 µM] | 15% | 12% |
| 20 | 13% | · | 1% | · |
| 21 | -4% | 1% | -7% | 6% |
| 22 | -2% | 14%[46.1 µM] | 2% | 10% |
| 23 | 8% | ? | 12% | ? |
| 24 | -4% | 23µM* | -5% | -25%[14.3 µM] |
| 25 | · | · | · | 13%[46.1 µM] |
| 26 | 3% | · | 6% | · |
| 27 | -4% | 17% | -5% | -20% |
| 28 | 0% | · | 9% | · |
| 29 | ? | ? | 6% | 0%[46.1 µM] |
| 30 | 30% | 17% | 1% | -4% |

Following part:
| entry | compound | Cruzain noTriton | NS1 inh | 2A StopGo | Cruzain Triton |
| --- | --- | --- | --- | --- | --- |
| 31 | CCCCC1=CC2=CC(=O)C(C)(OC(=O)CC)C(=O)C2=CN1CCCCO (stereo not given) | · | 4% | -9% | · |
| 32 | CC1(C(=O)O)CCC(C(N)=O)C1(C)C (stereo not given) | · | 5% | -11% | · |
| 33 | O=C(Nc1ccccc1)C1CCN(C(=O)c2ccc(Br)cc2)CC1 | · | -16% | 0% | · |
| 34 | Cc1cc(OCC(=O)OC(C)(C)C)c2c3c(c(=O)oc2c1)CCC3 | 25% | 10% | -24% | -9.9% |

| entry | SARS PLP yeast | Marburg entry inh | RE007 growth inh | LASV entry inh |
| --- | --- | --- | --- | --- |
| 31 | -1% | · | 3% | · |
| 32 | 0% | 15%[46.1 µM] | -16% | 19% |
| 33 | -2% | -6% | ? | 0% |
| 34 | 5% | -8% | 3% | -7% |

Filtered by structure, the entries above containing a Cl atom
| entry | compound | Cruzain noTriton | NS1 inh | 2A StopGo | Cruzain Triton |
| --- | --- | --- | --- | --- | --- |
| 9 | O=C(CN1C(=O)c2cccnc2Oc2ccc(Cl)cc21)NC1CCCC1 | · | 9% | -21% | · |
| 15 | Cc1ccc(NC(=O)CSc2nnc(COc3ccc(Cl)cc3)o2)c(C)c1 | -10% | · | -21% | -0.9% |
| 22 | COc1ccc(Cl)cc1NC(=O)N1CCC(C)CC1 | · | -5% | -3% | · |
| 24 | COc1ccc(C)cc1S(=O)(=O)N(CC(=O)NCc1ccc(Cl)cc1)Cc1ccccc1 | 5% | 10% | ? | -2.0% |
| 29 | Clc1ccc(OCCCNCc2ccccc2)c2ccccc12 | · | 7% | -15% | · |
| 30 | CCOC(=O)c1cnc2ccc(Cl)cc2c1Nc1ccc(S(=O)(=O)Nc2ncccn2)cc1 | -5% | 11% | 22% | -2.3% |

| entry | SARS PLP yeast | Marburg entry inh | RE007 growth inh | LASV entry inh |
| --- | --- | --- | --- | --- |
| 9 | -1% | -22%[46.1 µM] | 35% | ? |
| 15 | · | 10%[46.1 µM] | · | -1%[46.1 µM] |
| 22 | -2% | 14%[46.1 µM] | 2% | 10% |
| 24 | -4% | 23µM* | -5% | -25%[14.3 µM] |
| 29 | ? | ? | 6% | 0%[46.1 µM] |
| 30 | 30% | 17% | 1% | -4% |

Structural class: those above with a furan ring, fused or not.
| entry | compound | Cruzain noTriton | NS1 inh | 2A StopGo | Cruzain Triton |
| --- | --- | --- | --- | --- | --- |
| 1 | CCc1nc(NCCCn2ccnc2)c2oc3ccccc3c2n1 | 5% | 4% | -13% | -0.5% |
| 7 | O=C(NNc1ncnc2c1cnn2-c1ccc(F)cc1)c1ccco1 | · | -3% | 15% | · |

| entry | SARS PLP yeast | Marburg entry inh | RE007 growth inh | LASV entry inh |
| --- | --- | --- | --- | --- |
| 1 | -5% | 6% | -3% | 7% |
| 7 | -1% | · | 10% | · |
